MT1-MMP act inh – MT1-MMP (human) activation inhibition; HT1080 RFP-PRO-GFP cells, GFP/RFP ratio fluorescence, overnight; percent of plate control window, DMSO zero; GFP/RFP ratio change, % at 20 µM; actives 0.061% (n = 360,000); AID 651647;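 active = GFP/RFP ratio change of at least 30% with cell ATP level not reduced by more than half and red fluorescence within 50% of control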; also: strong numbers were not always called active
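Material – HT1080 RFP-PRO-GFP cells · Control set – DMSO wells and RFP-L50D-GFP cells · Incubation – overnight cell settling, then overnight compound exposure, 37 °C, 5% CO2 · Compound dosing – single-point 20 µM compound, 1% DMSO · Read-out – GFP/RFP fluorescence ratio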
CSC inhib – blocks cancer stem cells; actives 1.1% (n = 300,000); inhibition, % at 7.5 µM; cancer stem cell-like cells viability, luminescence; AID 2717;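 active = mean at 75% or more and at least half the replicates too; inconclusive = mean and replicates disagree; tested in HMLE shEcad cells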;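 also: 0% = median of negative and 100% = median of positive control wells; the first replicate is given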
UUG fidelity – modulators of start codon recognition fidelity in yeast. S. cerevisiae UUG-firefly luciferase reporter, luminescence/redox ratio. activity score, % at 18.7 µM. actives 0.13% (n = 350,000). AID 602363;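 active = replicate mean at a twofold rise or more, about +100% in these data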;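 also: firefly luciferase made from a UUG start codon reports start codon fidelity; reporter light over untreated wells divided by growth signal over untreated wells; some hits fall short of that in this replicate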
Rce1 inh – blocks yeast Ras-converting enzyme; AID 2563; actives 0.27% (n = 290,000); calls only; yeast membranes, quenched prenylated peptide cleavage fluorescence;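 active = fall in fluorescence gain of 50% or more versus controls, with final raw signal at or below 3038400; inconclusive = same 50% fall but final raw signal above 3038400; inactive = fall in fluorescence gain under 50%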;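 also: plate controls were neutral control wells for no effect and wells lacking membranes for full effect; tested at 10 µM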
Target sequence (Q03530 whole entry, looked up): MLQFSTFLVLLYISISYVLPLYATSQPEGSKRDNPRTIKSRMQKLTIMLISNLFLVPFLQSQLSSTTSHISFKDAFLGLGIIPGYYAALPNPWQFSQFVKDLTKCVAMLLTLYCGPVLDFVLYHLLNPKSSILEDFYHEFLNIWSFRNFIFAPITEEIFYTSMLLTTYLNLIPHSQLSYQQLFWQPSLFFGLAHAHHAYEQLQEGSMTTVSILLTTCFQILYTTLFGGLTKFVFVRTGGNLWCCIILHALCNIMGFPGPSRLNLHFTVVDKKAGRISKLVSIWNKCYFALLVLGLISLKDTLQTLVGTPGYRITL
eIF4H inh – inhibitors of RNA binding by human eIF4H | eIF4H fluorescence polarization binding assay | inhibition, % at 35 µM | actives 0.94% (n = 290,000) | AID 2012;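 active = 50% or more with normal probe brightness, or confirmed in later tests; inconclusive = above 50% with abnormal brightness, or retests that disagree; inactive = below 50% or failed in later tests; about a fifth of its hits are not listed in these tables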;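 also: calls also rest on retests at 20 µM and on dose response follow-up; 0% = protein and probe with vehicle and 100% = probe without protein; strong numbers were not always called active; many hits fall short of the cut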
HIV Env fusion – HIV envelope-mediated fusion inhibition | HeLa-JRFL Env/CEM21 cell fusion, luciferase | inhibition, % at 12.3 µM | actives 1.1% (n = 360,000) | AID 651610;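 active = mean replicate inhibition score of at least 50 and every replicate individually at or above 50; inconclusive = only one of the two criteria met; inactive = mean below 50 and not all replicates reaching 50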;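 also: 0% = plate neutral controls and 100% = maraviroc near 300 nM; one replicate is shown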
PABP FP inh – PABP-poly(A) binding inhibition | PABP-poly(A) RNA binding, fluorescence polarization | inhibition, % at 35 µM | actives 1% (n = 290,000);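 active = 50% or more with normal probe brightness, or confirmed in later tests; inconclusive = above 50% with abnormal brightness, or retests that disagree; inactive = below 50% or failed in later tests; about a fifth of its hits are not listed in these tables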;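 also: calls also rest on retests at 20 µM and on dose response follow-up; controls were probe without protein and protein plus probe with vehicle; some compounds called inactive have numbers as strong as hits; many hits fall short of the cut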
eIF4H inh retest – recorded beside eIF4H inh, whose call it bears; inhibition, %; compound at 20 µM; confirmation average;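 mean of two retest wells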
PABP FP inh retest – further read-out of PABP FP inh, marked with its call; inhibition, %; compound at 20 µM; confirmation repeats;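 mean of two retest wells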
MT1-MMP act inh RFP – recorded beside MT1-MMP act inh, whose call it bears; RFP signal change, %; measured here: RFP expression control read;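 0 = vehicle wells; hits needed this value within 50% of zero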
* hit, by the source's call; i = inactive; ? = inconclusive; . = no result given; & = joins results of further samples; [ ] = another dose, or the depositor's remark. No enrichment for hits; overall some 3% were active at least once.

SMILES	MT1-MMP act inh	MT1-MMP act inh RFP	CSC inhib	UUG fidelity	Rce1 inh	eIF4H inh	HIV Env fusion	PABP FP inh	others
COc1ccc(/C=N/OC/C(O)=C(\C#N)c2nc3ccccc3[nH]2)cc1	1	5	11	-4	i	-9	-51	-12
Cn1c(=O)c2c(nc(Br)n2Cc2nnc(N)s2)n(C)c1=O	-1	3	17	-19	i	-2	7	-2
O=C(Nc1ccc2nsnc2c1)N1CCCCCC1	2	5	0	-20	i	10	-132	1
O=C(CSc1ccc2ccccc2n1)N1CCC(c2noc3ccc(F)cc23)CC1	4	0	-8	9	i	1	-25	2
C/C(=N\NC(=O)c1c(C)nc2ccccn12)c1cccc([N+](=O)[O-])c1	-3	-9	-9	.	i	-8	5	4
N#Cc1ccc(-c2ccc(OCC(=O)NCCCN3CCCC3=O)cc2)cc1	0	-1	39	.	i	0	-10	54	eIF4H inh retest=40;PABP FP inh retest=40
CCCCC(Sc1nc(C)c(Cc2ccccc2)c(=O)[nH]1)C(=O)O (stereo unspecified)	3	4	3	2	i	-1	12	7
CSc1nc2c(C)c(C)c(C)c(C)c2[nH]1	-10	0	.	.	i	-3	6	6
C[C@@H]1CN([C@H](C)CO)S(=O)(=O)c2ccc(Br)cc2O[C@H]1CN(C)C(=O)C1CC1	0	1	.	-1&22&27	.	.	16	.
COc1ccc(C(=O)N2CCCCCC2)cc1OC1CCN(C(C)=O)CC1	-1	3	-13	3	i	-10	.	-8
Cc1cc2c(Nc3ccc(C(=O)O)cc3)ncnc2s1	0	1	-13	-14	i	4	0	-7
COc1cc2c(C(=O)NCc3ccc(C)o3)cn(CC(C)C)c(=O)c2cc1OC	-5	-3	-4	-4	i	2	5	6
O=C(O)c1ccccc1/C=N/n1c(C2CCCCC2)n[nH]c1=S	0	5	-13	-7	i	-2	-6	-3
CCCc1cc(=O)[nH]c(SCC(=O)NC(=O)OCC)n1	4	2	-11	-14	i	-8	.	7
S=C(NCc1ccco1)Nc1ccc(Oc2ccccc2)cc1	-1	-1	19	-9	i	-7	12	-9
CC1(c2ccccc2)NC(=O)N(CC(=O)N2CCN(S(=O)(=O)c3cccs3)CC2)C1=O (stereo unspecified)	-8	5	-10	-3	i	.	12	.
O=C1N/C(=N\N=C\c2cccs2)SC1Cc1ccc(Cl)c(Cl)c1 (stereo unspecified)	3	0	27	.	i	-3	10	-6
CCC1CCCCN1C(=O)CCNS(=O)(=O)c1ccc2c(c1)oc(=O)n2C (stereo unspecified)	1	4	10	-15	i	0	4	-9
Cc1cc(C)n(-c2ccc(C(=O)Nc3cccnc3Cl)cc2)n1	-1	-1	-7	.	i	4	-6	-2
Nc1nc(Cl)cc(-c2ccccc2)n1	-1	-2	6	.	.	5	12	9
Cc1cc(Br)ccc1NC(=O)CSc1nnc(CN2CCOCC2)n1C	-2	-3	-3	1	i	-5	-3	9
CCc1nnc(NC(=O)CSc2nc(-c3ccccc3)nc3ccccc23)s1	-4	-2	7	-3	i	5	5	6
C/C(=C\C(=O)c1ccc(Br)cc1)NNC(=O)c1ccccc1	6	1	43	.	i	.	26	.
Cc1ccccc1N(C(=O)CNC(=O)c1ccco1)C(C(=O)NC1CCCCC1)c1cccnc1 (stereo unspecified)	0	2	-1	-4	i	6	1	5
CC1(C)C(C=C(Cl)Cl)C1C(=O)N(Cc1cccc(Cl)c1)C1CCS(=O)(=O)C1 (stereo unspecified)	0	0	-1	-6	i	-8	-20	-3
CCCCC(CCC(=O)O)(C(=O)OCC)c1csc(Nc2ccc(OCC)cc2)n1 (stereo unspecified)	9	1	-1	-1	i	1	-1	-9
Nc1c([N+](=O)[O-])c(=O)oc2ccccc12	3	5	-10	.	i	7	-19	3
Cc1cccc(NC(=S)NC(C)(C)CC(C)(C)C)c1	0	-4	-2	.	i	-18	13	?
COc1cccc(NC(=O)N2CCCC2C(=O)Nc2ccc3c(c2)OCO3)c1 (stereo unspecified)	2	8	-21	-8	.	-1	9	-6
NC(=O)NC(=O)CSc1nc(C2CCCCC2)n(-c2ccccc2)n1	-2	-3	-11	.	i	-1	-4	4
Cc1cccc(N2CCN(C(=O)Cn3ccc4ccccc4c3=O)CC2)c1C	3	-4	5	15	i	-14	.	-14
CCOC(=O)/C(=N/Nc1ccccc1)N1CCCc2ccccc21	-49	-32	5	.	i	44	-48	-2
COc1cc(/C=C2\SC(=O)N(c3ccc(Cl)cc3)C2=O)cc([N+](=O)[O-])c1O	21	-7	.	.	.	96*	-4	21	eIF4H inh retest=106*;PABP FP inh retest=14
CC(C)(C)n1ncc2c(=O)n(Cc3ccc(Cl)c(Cl)c3)cnc21	-1	6	-2	.	i	2	1	-2
O=C(Nc1ccccc1C(=O)Nc1ccccc1C(=O)NCc1ccco1)c1ccco1	-6	-8	1	-11	i	9	.	-1
Cc1cc(NC(=O)c2cc(-c3cccnc3)nc3c(C)c(C)ccc23)no1	2	1	-4	-23	i	-11	.	-6
O=c1[nH]c2ccccc2nc1/C=C(\O)c1cccs1	-129	1	.	.	.	?	i	?
CC(C)(C)C(=O)COc1ccccc1[N+](=O)[O-]	-4	1	21	.	i	-7	6	-13
C/C(CC(=O)Nc1cccc(F)c1)=N\NC(=O)c1ccncc1	1	2	9	5	i	2	-5	10
Cc1csc(NC(=O)CSc2nsc(SCC(=O)Nc3nc(C)cs3)c2C#N)n1	-13	-3	10	-9	i	0	-216	-6
COc1cccc(CC(=O)NCCCSc2ccccc2)c1	-5	-4	7	3	i	7	0	4
COc1ccccc1OCCn1c(SCC(=O)O)nc2ccccc21	-1	-1	-14	5	i	27	3	22
Cc1ccc(C2C(C(=O)c3ccco3)=C(O)C(=O)N2c2nnc(C)s2)cc1 (stereo unspecified)	-8	7	-19	-22	i	?	-43	?
CC(=O)c1ccc(NC(=O)C(C)Sc2n[nH]c(-c3cccnc3)n2)cc1 (stereo unspecified)	2	7	-9	-12	i	-7	8	-2
Cc1ccc(CCN2C(Nc3ccccc3)=NC[C@@H]2C)cc1	3	6	2	-15	.	.	-26	.
Cc1ccc(SCC(=O)Nc2ccc(-c3nnc(-c4ccco4)o3)cc2)cc1	1	-2	3	3	i	58*	.	79*
Cc1ccc(C(=O)OCC(=O)Nc2c(C)nn(-c3ccccc3)c2C)c(O)c1	1	5	.	-7	.	.	-6	.
Cc1nc2ccc(NC(=O)c3ccc(=O)[nH]c3)cc2s1	-1	3	-14	-2	i	-5	-9	6
Cc1ccc(S(=O)(=O)N2CCN(c3nc(C)nc4sc(C)c(C)c34)CC2)cc1	.	.	.	.	i	-1	.	10
COc1cccc(C(=O)NCC(=O)OCC(=O)c2ccccc2)c1	3	5	-11	.	i	5	8	-8
COc1ccc(C(=O)Nc2ccc(OCC(=O)N3CCOCC3)cc2)c(OC)c1OC	0	5	-2	-5	i	-1	2	5
CCN(CC)c1cccc(OCC(=O)N2c3ccccc3CC2C)c1 (stereo unspecified)	-3	-5	.	3	.	.	30	.
COc1cc(NC(=O)CCCOc2ccc(Cl)cc2Cl)c(C(=O)O)cc1OC	6	7	10	-20	i	6	11	-4
CN(C)c1ccc(Cl)c(NC(N)=S)c1	-1	7	.	-2	.	.	-27	.
C=CCOC(=O)N1CCC2CC1c1cc(-c3cccc(C)c3)ccc12 (stereo unspecified)	-6	-16	.	-4	.	.	13	.
COc1cccc(-c2nc(CS(=O)(=O)CC(=O)NC3CCCc4ccccc43)c(C)o2)c1 (stereo unspecified)	7	-3	-6	-7	i	4	.	7
CC1(C)C(Cl)C(=O)C(C(=O)c2ccccc2)C(=O)C1Cl (stereo unspecified)	1	2	-4	1	i	-2	-6	9
Cc1cccc([N+](=O)[O-])c1NC(=O)COC(=O)C1CC2CCCC(C1)C2=O (stereo unspecified)	3	3	1	.	i	.	13	.
CCOc1ccc(NC(=O)C2CC(=O)N(CCc3ccc(OC)c(OC)c3)C2)cc1OCC (stereo unspecified)	2	0	.	-3	.	.	-17	.
Cc1ccccc1NC(=O)Nc1nc(C(N)Cc2ccccc2)cs1 (stereo unspecified)	10	1	.	3	.	.	8	.
Carrying on:
SMILES	MT1-MMP act inh	MT1-MMP act inh RFP	CSC inhib	UUG fidelity	Rce1 inh	eIF4H inh	HIV Env fusion	PABP FP inh	others
CC1CN(C2CC(C)(C)NC(C)(C)C2)CCC1=O (stereo unspecified)	0	6	1	-19	i	3	-2	-4
CN1CCN(C(=S)NC(CC(=O)c2ccccc2)c2ccccc2)CC1 (stereo unspecified)	3	1	1	.	i	-11	-7	-11
COc1ccccc1-c1cn(CC[C@H]2CC[C@@H](NS(=O)(=O)c3ccccc3C)[C@@H](CO)O2)nn1	4	1	.	-2	.	.	30[16.7 µM]	.
CCc1ccc([C@@H]2CC=C(C(=O)O)[C@H](c3ccc(Br)cc3)N2S(=O)(=O)c2ccc(C)cc2)cc1	-1	-1	.	-13	.	.	20	.
CCOc1cc(-c2nc(-c3ccc(OC)cc3)no2)cc(OCC)c1OCC	-1	2	-13	.	i	-2	.	7
Cc1ccccc1N=C1NC(=O)C(CO)(CO)S1	-2	-3	-10	-17	i	-3	-1	-1
O=C(O)c1sccc1Oc1ccc(NS(=O)(=O)c2ccc(Cl)cc2)cc1	2	7	-7	.	i	1	-7	5
O=C(C1CCC(CNc2c(N3CCOCC3)c(=O)c2=O)CC1)N1CCN(c2ccccc2)CC1 (stereo unspecified)	1	8	6	4	.	2	-14	-14
Cc1ccc(OCCNC(=O)/C=C/c2ccccc2)cc1	-1	3	-13	.	i	-5	.	-7
O=C(CNC(=O)c1ccc(Br)o1)OCc1ccc(Br)cc1	-1	-2	-3	1	.	.	6	.
C=CCN(c1ccc(Cl)cc1)S(=O)(=O)c1cccc(C(=O)O)c1	.	.	-10	.	i	-1	10	2
CCOC(=O)Cc1csc(SCn2nnc3ccccc3c2=O)n1	1	1	2	.	i	-2	.	13

Continued; it opens with the five that closed the last part.
SMILES	MT1-MMP act inh	MT1-MMP act inh RFP	CSC inhib	UUG fidelity	Rce1 inh	eIF4H inh	HIV Env fusion	PABP FP inh	others
O=C(C1CCC(CNc2c(N3CCOCC3)c(=O)c2=O)CC1)N1CCN(c2ccccc2)CC1 (stereo unspecified)	1	8	6	4	.	2	-14	-14
Cc1ccc(OCCNC(=O)/C=C/c2ccccc2)cc1	-1	3	-13	.	i	-5	.	-7
O=C(CNC(=O)c1ccc(Br)o1)OCc1ccc(Br)cc1	-1	-2	-3	1	.	.	6	.
C=CCN(c1ccc(Cl)cc1)S(=O)(=O)c1cccc(C(=O)O)c1	.	.	-10	.	i	-1	10	2
CCOC(=O)Cc1csc(SCn2nnc3ccccc3c2=O)n1	1	1	2	.	i	-2	.	13
COc1ccccc1OCCn1c(=O)sc2ccccc21	3	-2	-13	-15	.	-11	-96	-17
Cc1cc(C)n(C(=O)c2cc([N+](=O)[O-])cc([N+](=O)[O-])c2)n1	2	1	1	24	i	0	-15	-2
COc1ccc(Nc2nc(-c3ccccc3)nc3ccccc23)cc1S(=O)(=O)N1CCOCC1	-14	-12	54	-4	i	-10	22	4
COc1ccc(N2C(=O)CCC(C(=O)O)C2c2ccc(F)cc2)cc1 (stereo unspecified)	-6	1	4	-7	i	-9	-12	-1
COc1cc(N=Nc2ccc(Br)cc2)cc(C=O)c1O	29	-5	.	-26	.	.	-27	.
CCN(C(=O)CN1CCN(c2cccc(Cl)c2)CC1)c1c(N)n(Cc2ccccc2)c(=O)[nH]c1=O	-4	-7	-4	-5	i	-15	-1	0
